Bioassay records: PubChem, National Center for Advancing Translational Sciences (NCATS)
Cruzain inh Det: inhibitors of Trypanosoma cruzi cruzain with detergent. P25779. 200,000 tested, 0.43% active. purified cruzain, Z-FR-AMC fluorescence, 0.01% Triton. AID 1478. Potency, µM, for the others: max response, negative = inhibition, most hits filed as inhibitors;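 note: plate controls were neutral wells for no effect and buffer without enzyme for full effect; nearly all actives have a fitted effect of over 40% in size; top concentration of the series not given in the record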
Target sequence (P25779 123-467 limits assumed): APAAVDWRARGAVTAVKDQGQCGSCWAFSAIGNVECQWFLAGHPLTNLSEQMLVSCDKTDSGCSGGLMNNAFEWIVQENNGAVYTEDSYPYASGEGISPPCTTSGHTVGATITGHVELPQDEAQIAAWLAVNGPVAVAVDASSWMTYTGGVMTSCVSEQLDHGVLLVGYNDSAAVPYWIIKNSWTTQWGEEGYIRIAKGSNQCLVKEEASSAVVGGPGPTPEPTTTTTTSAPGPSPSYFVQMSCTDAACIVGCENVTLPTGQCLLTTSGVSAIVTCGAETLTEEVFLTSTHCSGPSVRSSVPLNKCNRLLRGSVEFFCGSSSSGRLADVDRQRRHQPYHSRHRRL
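Purified cruzain (1.5 nM final) was preincubated with compounds for 15 min at room temperature in 100 mM sodium acetate pH 5.5, 5 mM DTT, 0.01% Triton X-100. Reaction started with 2 uM Z-FR-AMC; AMC fluorescence change over 60 s gave activity.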
SARS PLpro yeast: inhibitors of SARS-CoV papain-like protease in yeast. S. cerevisiae expressing SARS-CoV PLpro, growth rescue; control for the full effect not named in the record. 330,000 tested, 0.19% active. Potency, µM (titrated, usually from 32.9 µM), without a hit: at the top dose activity, positive = growth rescue; active means well fitted rising curve with a large enough effect; inconclusive means small, poorly fitted or top-dose-only effect; inactive means no such curve, though single readings can be large or run the other way; note: 0% is about no effect; nearly all actives have a fitted effect of over 55% in size; growth read by luminescence after 48 h
Cruzain inh noDet: blocks cruzain activity in detergent-free assay; P25779; Potency, µM, for the others: max response, negative = inhibition, hits mostly inhibitors; purified cruzain, Z-FR-AMC fluorescence, no detergent; AID 1476; 200,000 tested, 2.3% active;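 note: plate controls were enzyme without inhibitor for no effect and buffer without enzyme for full effect; nearly all actives have a fitted effect of over 40% in size; top concentration of the series not given in the record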
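Purified cruzain at 1.5 nM, pre-incubated 15 min with compound at room temperature in 100 mM sodium acetate pH 5.5, 5 mM DTT, 0.00005% Triton X-100. Reaction started with 2 uM Z-FR-AMC; AMC fluorescence increase over 60 s gives rate.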
Marburg entry inh: blocks Marburg virus binding to or entry into cells; Marburg virus pseudotyped entry inhibition, cell reporter; control for the full effect not named in the record; about a third of the inactives were read at about 46 µM; Potency, µM (series often up to 37.8 µM), for inactives: top-dose activity change, negative = inhibition, usual class: inhibitors; 300,000 tested, 1.8% active; active = well fitted inhibition curve with a large enough effect; inconclusive = small, poorly fitted or top-dose-only effect, or effect the other way; inactive = flat fitted curve, though single readings scatter; tested in HEK293 cells; about a fifth of its hits are not listed in these tables; note: % is set by controls: 0 for no effect and ±100 for the full control effect; luciferase read-out
Lassa entry inh: Lassa virus entry inhibition. Lassa virus pseudotype entry inhibition, cell reporter; control for the full effect not named in the record. Potency, µM (titrated, usually from 37.9 µM), for the others: top-dose activity change, negative = inhibition, actives largely listed as inhibitors. 300,000 tested, 1.2% active. AID 540256; active means well fitted inhibition curve with a large enough effect; inconclusive means small, poorly fitted or top-dose-only effect, or effect the other way; inactive means flat fitted curve, though single readings scatter; tested in HEK293 cells; note: % is set by controls: 0 for no effect and ±100 for the full control effect; nearly all actives have a fitted effect of over 50% in size; luciferase read-out
NS1 function inh: influenza NS1 inhibition; S. cerevisiae slowed by influenza A NS1, growth recovery by OD600; Potency, µM (doses to about 46.1 µM), for the others: at the highest dose activity, positive = more growth; 270,000 tested, 0.4% active; AID 2326; active means well fitted rising curve with a large enough effect; inconclusive means small, poorly fitted or top-dose-only effect; inactive means no such curve, though single readings can be large or run the other way; note: nearly all actives have a fitted effect of over 50% in size
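In this qHTS, NS1 from influenza A is expressed in budding yeast, where it slows growth. Cells are switched from glucose to 2% galactose medium (pH 6.0, -URA), treated with compound, and growth recovery is read at OD600.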
StopGo reporter: lowers the luciferase signal of an FMDV 2A StopGo reporter; human cells with a luciferase reporter of 2A StopGo recoding; control for the full effect not named in the record; 410,000 tested, 1.2% active; Potency, µM (series often up to 57.9 µM), inactives show top-dose signal change, negative = less light; active = well fitted falling curve with a large enough effect; inconclusive = small, poorly fitted or top-dose-only effect; inactive = no such curve, though single readings can be large or run the other way; tested in HEK293T cells; note: % is set by controls: 0 for no effect and ±100 for the full control effect; nearly all actives have a fitted effect of over 45% in size; luciferase light after 4 h
RE007 growth inh: less growth of the S. pombe RE007 Vpr strain; S. pombe RE007 Vpr strain, BacTiter-Glo ATP luminescence, 24 h; control for the full effect not named in the record; Potency, µM (top dose mostly 92.2 µM), inactives show top-dose activity change, negative = less growth; 360,000 tested, 0.21% active; AID 651644; active = well fitted falling curve with a large enough effect; inconclusive = small, poorly fitted or top-dose-only effect; inactive = no such curve, though single readings can be large or run the other way;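 note: % is set by controls: 0 for no effect and ±100 for the full control effect; nearly all actives have a fitted effect of over 50% in size; the assay follows cell death caused by Vpr and the record does not say whether a fall means rescue or toxicity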
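Fission yeast RE007 carrying one integrated HIV-1 vpr copy, seeded at OD 0.01 in PMG+AL medium with 23 nL pinned compound. Grown 24 h at 30 degrees; viability read by BacTiter-Glo luminescence after 5 min.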
* = called active by the depositor; ? = inconclusive; · = no result given; & = joins results of further samples; [ ] = another dose, or the depositor's remark. Unless noted, calls come from the whole dose curve; as a rule, active = well fitted curve in the direction sought with a large enough effect; inconclusive = small, poorly fitted or top-dose-only effect, or another doubt; inactive = no such curve, though single readings can be large; an effect the other way counts as inactive or inconclusive. Potency is the fitted concentration of half-maximal effect.

Structure,Cruzain inh Det,StopGo reporter,Cruzain inh noDet,RE007 growth inh,NS1 function inh,SARS PLpro yeast,Marburg entry inh,Lassa entry inh
CCc1ccc2[nH]c3nc(SCc4nnc(-c5ccc(C)cc5)o4)nnc3c2c1,-0.1%,-14%,13µM*,-3%,5%,22%,-3%,-9%
CN(NS(=O)(=O)c1ccc(Cl)cc1)c1ncc(C(F)(F)F)cc1Cl,·,1%,·,-19%,·,-9%,-14%[46.1 µM],-16%[46.1 µM]
CCOc1cccc(CN(CC)CC2CCCN(CCc3cccc(OC)c3)C2)c1O (centres undefined),·,-7%,·,-12%,-12%,5%,?,?
Cc1ccc(NC(=O)Cn2sc3nc(C)cc(C)c3c2=O)c(Cl)c1,·,-10%,·,22%,0%,-5%,·,·
O=C(/C=C/c1ccccc1)NC(=S)NNC(=O)Cc1cccs1,6.2%,-17%,?,2%,-6%,-12%,?,?
Cn1c(=O)cc(SCC(=O)Nc2cccc(C#N)c2)c2ccc(Cl)cc21,-1.2%,-8%,-18%,·,·,·,3%[46.1 µM],-2%[46.1 µM]
Cc1noc(C)c1C(=O)OCC(=O)NC(c1ccccc1)c1ccccc1,0.7%,-5%,-5%,-10%,-6%,-8%,1%,2%
Cc1ccc(CNC(=O)CCC(=O)c2cccs2)cc1,5.1%,3%,-14%,-14%[3.69 µM],1%,6%,-18%,-2%
CC(C)N(CCO)Cc1nc(C(c2ccccc2)c2ccccc2)no1,·,-4%,·,8%,21%,-1%,?,?
CCOC(=O)c1nc(C)sc1-c1ccnn1S(=O)(=O)c1ccc(Cl)cc1Cl,·,?,·,24%,-4%,-4%,-21%,-3%
O=C(Nc1cccc2[nH]ncc12)NS(=O)(=O)c1ccccc1,·,-9%,·,11%,8%,-1%,·,·
CC(=O)C1(O)C(C)CC2C3CC=C4CC(O)CCC4(C)C3CCC21C (centres undefined),·,3%,·,?,·,·,-1%[46.1 µM],-4%[46.1 µM]
CC1CN(C(=O)Nc2ccc(C(=O)NCCc3ccccc3Cl)cc2)c2ccccc2S1 (centres undefined),-4.2%,-13%,-9%,·,·,·,3%[46.1 µM],?
Cc1ccc(C)c(Nc2nnc(-c3ccc(C)c(S(=O)(=O)N4CCN(C)CC4)c3)c3ccccc23)c1,-4.2%,-14%,-12%,·,·,·,-16%[46.1 µM],?
COc1cccc(C2C(C(C)=O)=C(C)Nc3ncnn32)c1 (centres undefined),·,-3%,·,-8%,3%,-1%,4%,20%
CCCc1ccc(C(=O)N2CCN(c3ccccc3OCC)CC2)cc1,-9.4%,-16%,7%,4%,-66%,-4%,-29%,-15%
CCOC(=O)C(=NCCCN(C)C)NNc1cc(C(F)(F)F)ccc1Cl,·,-11%,·,56%,·,-1%,-16%[46.1 µM],13%[46.1 µM]
COc1ccc(NC(=O)c2c(C)nn(Cc3ccccc3)c2C)cc1S(=O)(=O)N(C)C,·,-25%,·,12%,-5%,3%,-18%,-23%
CCc1c(C)nc(N)n2c(SCC(=O)NC3CCCCC3)nnc12,·,-12%,·,15%,9%,2%,4%[46.1 µM],-11%[46.1 µM]
CCS(=O)(=O)N1Cc2ccccc2CC1C(=O)Nc1nnc(C2CC2)s1 (centres undefined),·,-1%,·,6%,·,0%,?,-2%
Nc1nc(-c2ccc3c(c2)CCC(=O)N3)cs1,·,38%[activator],·,3%,·,1%,?,0%[46.1 µM]
Cc1noc(C)c1CSCC(=O)N(C)CC(=O)Nc1ccc(F)cc1,·,-18%,·,17%,·,3%,?,-17%
CCN(CC)S(=O)(=O)c1ccc2c(c1)nc(CCC(=O)OCC(=O)Nc1cc(OC)cc(OC)c1)n2C,2.5%,-2%,?,4%,-37%,-5%,?,?
CCCCOc1ccc(C(=O)Nc2ccc(N3CCN(C)CC3)cc2)cc1,-2.1%,-16%,-3%,3%,14%,2%,-38%,13%
O=C(/C=C/c1cccc([N+](=O)[O-])c1)NCc1ccccc1,·,-18%,·,17%,8%,-6%,?,-22%
Cn1c(Oc2ccccc2)c(C=O)c2ccccc21,-0.3%,-20%,0%,?,-24%,-10%,-8%,0%
Cc1ccc(-c2nnc(Nc3ccc4c(c3)OCO4)c3ccccc23)cc1S(=O)(=O)NC(C)C,-7.8%,40%[activator],-2%,-17%,-36%,13%,?,?
COc1ccc(Nc2nc(NCc3ccco3)nc(N/N=C/c3ccc(O)cc3)n2)cc1,-9.1%,-9%,-26%,11%,11µM*,-26%,?,-3%
CC(=O)Nc1ccc(S(=O)(=O)NCCC(=O)NCCc2ccc(F)cc2)cc1,1.8%,3%,-12%,13%,5%,-14%,7%,-6%
CCc1nn2c(N(C)CCO)cc(C)nc2c1-c1ccc(F)cc1,·,-19%,·,6%,4%,1%,-18%[46.1 µM],-11%[46.1 µM]
S=C(Nc1cccc2ccccc12)Nc1cccc2ccccc12,·,-2%,·,-1%,·,·,?,0%[46.1 µM]
COc1ccc(S(=O)(=O)Nc2ccc(F)cc2)c(C)c1C,-8.7%,45%[activator],0%,4%,-86%,-8%,-12%,5%
CCOC(=O)c1ccc(NC(=O)c2sc3nc4n(c(=O)c3c2C)CCC4)cc1,-0.7%,?,3%,12%,-2%,-2%,?,13%[46.1 µM]
CC[C@H](C)[C@H](NC(=O)c1ccc(Cl)cc1)C(=O)OCC(=O)c1ccc2c(c1)NC(=O)CO2,-21%,?,-15%,0%,13%,0%,?,?
Cc1ccc(N(CC(=O)NC2CC3CCC2C3)S(C)(=O)=O)cc1C (centres undefined),-1.3%,-7%,0%,3%,5%,-11%,0%,?
Cn1c(CNC(=O)c2ccc3c(c2)OCO3)nnc1SCC(=O)Nc1ccc(F)cc1F,·,9%,·,3%,15%,-2%,-4%[46.1 µM],25%
O=C(CCCNC(=O)c1ccc(Cl)cc1)Nc1nccs1,·,-10%,·,-16%,·,2%,-4%[46.1 µM],1%[46.1 µM]
Cc1ccc(NC(=S)N2CCN(Cc3ccc4c(c3)OCO4)CC2)c(C)c1,·,-26%,·,?,·,·,0%,22%
C[C@@H](C(=O)N1CCN(Cc2ccc3c(c2)OCO3)CC1)n1nnc2ccccc2c1=O,·,-17%,·,-1%,11%,1%,-23%[46.1 µM],4%[46.1 µM]
CCOC(=O)c1cc(NC(=O)SCC(=O)O)c(C)nc1C,3.8%,-14%,7%,-17%,-2%,?,0%&0%,2%
CN(C(=O)COc1ccccc1)c1nnc(-c2cccnc2)s1,2.4%,22%,15%,-1%,-94%,-5%,?,11%
CCOC(=O)Cn1c(=O)n(C2CCCCC2)c2nc(-c3cccc(F)c3)nc(C(N)=O)c21,-1.1%,-13%,0%,·,·,·,·,25%[46.1 µM]
Cc1occc1C(=O)N1CCCC(CO)(Cc2ccc(F)cc2F)C1 (centres undefined),·,-11%,·,12%,3%,1%,?,22%
COc1ccc(/C=N/NC(=O)c2ccc3nc[nH]c3c2)cc1OC,·,-12%,·,8%,4%,0%,·,·
COc1ccc(Nc2ccccc2N)cc1,·,-16%,·,0%,·,-21%,?,-12%
O=C(CCSc1nc(-c2ccco2)cc(C(F)(F)F)n1)N1CCN(c2ccccc2)CC1,-11%,?,28%,9%,-68%,-19%,-24%,-16%
C=CCN(c1ccccc1)S(=O)(=O)c1cccc(C(=O)Nc2ncccc2O)c1,·,-5%,·,?,·,5%,0%[46.1 µM],?
Cc1ccc(O)c(-c2cc(C(=O)Nc3c(C)n(C)n(-c4ccccc4)c3=O)[nH]n2)c1,-4.1%,-24%,-12%,-13%,-5%,14%,?,-15%
Cc1csc(Sc2nc3c(c(=O)[nH]c(=O)n3C)n2Cc2ccccc2Cl)n1,-2.6%,-11%,12%,0%,?,5%,3%,-1%
COc1ccc(S(=O)(=O)N2CCN(C(=O)c3cccnc3)CC2)cc1OC,·,-17%,·,3%,2%,-5%,·,·
CN(C)S(=O)(=O)N(CC(=O)Nc1ccccc1F)c1ccccc1,-1.0%,7%,-8%,-8%,-4%,-5%,-15%&-15%,-1%
CC1(c2ccccc2Cl)NC(=O)N(CC(=O)NCc2ccco2)C1=O (centres undefined),·,4%,·,-14%,·,5%,-4%[46.1 µM],1%
CCOc1ccc2nc(-c3ccccc3)nc(SCC(=O)OC)c2c1,·,-5%,·,3%,14%,-4%,11%,-5%
Cc1coc2c1c(C)cc1oc(=O)c(CC(=O)NCC(=O)NCC(=O)O)c(C)c12,·,2%,·,8%,-2%,-1%,8%[46.1 µM],3%
CCCc1ccc(OCC(=O)Nc2sc(C(=O)OCC)c(C)c2C(=O)OCC)cc1,-1.2%,-2%,8%,·,·,·,·,10%[46.1 µM]
C/C(N)=C(/C#N)C(=O)CSc1nc2cc(Cl)ccc2c(=O)n1Cc1ccco1,·,-24%,·,11%,·,8%,4%,?
CCc1c(C)[nH]c(=S)c(C#N)c1C,1.6%,-24%,-5%,17%,4%,-6%,?,-1%
COc1ccccc1Cn1c(=S)[nH]c2ccc(Br)cc2c1=O,·,-4%,·,14%,-2%,-2%,1%[46.1 µM],-1%[46.1 µM]
CC(=O)Nc1nnc2n1CCS2,-0.8%,5%,-9%,·,·,·,·,15%[46.1 µM]
O=C(NCCCc1ccccc1)c1ccncc1,1.4%,6%,-5%,-1%,-9%,3%,-2%,-3%

(more compounds)
Structure,Cruzain inh Det,StopGo reporter,Cruzain inh noDet,RE007 growth inh,NS1 function inh,SARS PLpro yeast,Marburg entry inh,Lassa entry inh
O=C(Nc1ccc(-c2nc3cc(NC(=O)c4ccc(F)cc4)ccc3o2)cc1)c1ccc(F)cc1,0.7%,7%,-6%,·,·,·,·,13%[46.1 µM]
COc1ccccc1-c1nnc2sc(COc3ccc(Cl)cc3)nn12,-2.9%,?,3%,16%,-85%,-18%,-9%,?
CCOc1ccccc1NC(=O)CCc1c(C)nc2cc(-c3ccccc3)nn2c1C,1.9%,-29%,-1%,·,·,·,9%[46.1 µM],-2%[46.1 µM]
Cc1c2cnn(-c3ccccc3)c(=O)c2c(C)n1CCCC(=O)N1CCN(c2ncccn2)CC1,-0.8%,?,?,12%,-3%,1%,-15%,23%
Cc1nc(S(=O)(=O)Cc2ccc(Cl)cc2)nc2c1CCC2,·,0%,·,2%,1%,0%,29%[46.1 µM],13%
